Screens deposited in PubChem BioAssay by National Center for Advancing Translational Sciences (NCATS).
Lassa entry inh – Lassa virus entry inhibition; Lassa virus pseudotype entry inhibition, cell reporter; control for the full effect not named in the record; Potency, µM (series often up to 37.9 µM), inactives show at the highest dose activity change, negative = inhibition, actives largely listed as inhibitors; 300,000 tested, 1.2% active; AID 540256; active means well fitted inhibition curve with a large enough effect; inconclusive means small, poorly fitted or top-dose-only effect, or effect the other way; inactive means flat fitted curve, though single readings scatter; tested in HEK293 cells; further: on the % scale 0 is the no-effect control and ±100 the full control effect; nearly all actives have a fitted effect of over 50% in size; luciferase read-out
MARV entry inh – Marburg virus entry inhibition; Marburg virus pseudotyped entry inhibition, cell reporter; control for the full effect not named in the record; about a third of the inactives were read at about 46 µM; Potency, µM (highest dose often 37.8 µM), inactives show at the top dose activity change, negative = inhibition, hits mostly inhibitors; 300,000 tested, 1.8% active; AID 540276; active = well fitted inhibition curve with a large enough effect; inconclusive = small, poorly fitted or top-dose-only effect, or effect the other way; inactive = flat fitted curve, though single readings scatter; tested in HEK293 cells; about a fifth of its hits are not listed in these tables; further: on the % scale 0 is the no-effect control and ±100 the full control effect; luciferase read-out
NS1 inh – inhibitors of influenza NS1 protein function; AID 2326; Potency, µM (highest dose often 46.1 µM), without a hit: at the top dose activity, positive = more growth; S. cerevisiae slowed by influenza A NS1, growth recovery by OD600; 270,000 tested, 0.4% active; further: actives are rising curves; nearly all actives have a fitted effect of over 50% in size
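Growth recovery, yeast-based: influenza A NS1 expressed in S. cerevisiae causes slow growth, and suppressors are detected by OD600. The parent strain without NS1 is used as positive control.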
StopGo reporter – FMDV 2A StopGo reporter, luciferase signal; AID 1159524; human cells with a luciferase reporter of 2A StopGo recoding; control for the full effect not named in the record; Potency, µM (doses to about 57.9 µM), for inactives: at the highest dose signal change, negative = less light; 410,000 tested, 1.2% active; active = well fitted falling curve with a large enough effect; inconclusive = small, poorly fitted or top-dose-only effect; inactive = no such curve, though single readings can be large or run the other way; tested in HEK293T cells; further: on the % scale 0 is the no-effect control and ±100 the full control effect; nearly all actives have a fitted effect of over 45% in size; luciferase light after 4 h
Cruzain inh Det – inhibitors of Trypanosoma cruzi cruzain with detergent. P25779. purified cruzain, Z-FR-AMC fluorescence, 0.01% Triton. Potency, µM, without a hit: max response, negative = inhibition, hits mostly inhibitors. 200,000 tested, 0.43% active; active means well fitted curve in the direction sought with a large enough effect; inconclusive means small, poorly fitted or top-dose-only effect, or another doubt; inactive means no such curve, though single readings can be large; an effect the other way counts as inactive or inconclusive;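 further: plate controls were neutral wells for no effect and buffer without enzyme for full effect; nearly all actives have a fitted effect of over 40% in size; top concentration of the series not given in the record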
Target sequence (P25779 123-467 limits assumed): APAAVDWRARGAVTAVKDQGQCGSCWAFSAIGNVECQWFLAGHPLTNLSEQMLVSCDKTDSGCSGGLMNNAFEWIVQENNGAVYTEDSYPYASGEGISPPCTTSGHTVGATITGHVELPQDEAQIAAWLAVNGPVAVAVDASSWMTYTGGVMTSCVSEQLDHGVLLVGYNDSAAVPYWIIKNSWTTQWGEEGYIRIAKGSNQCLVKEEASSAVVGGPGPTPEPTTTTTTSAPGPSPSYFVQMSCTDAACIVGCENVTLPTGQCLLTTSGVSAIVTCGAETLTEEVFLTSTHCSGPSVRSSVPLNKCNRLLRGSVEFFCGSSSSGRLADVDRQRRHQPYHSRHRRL
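Z-FR-AMC hydrolysis (2 uM substrate) by cruzain (1.5 nM) monitored kinetically at ex 360/em 450 nm after 15 min room-temperature compound exposure; 0.01% Triton X-100, pH 5.5, 5 mM DTT.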
SARS PLpro yeast – SARS-CoV PLP inhibition in yeast; S. cerevisiae expressing SARS-CoV PLpro, growth rescue; control for the full effect not named in the record; Potency, µM (doses to about 32.9 µM), without a hit: at the top dose activity, positive = growth rescue; 330,000 tested, 0.19% active; AID 485353; further: 0% is about no effect; nearly all actives have a fitted effect of over 55% in size; growth read by luminescence after 48 h
Cruzain inh noDet – inhibitors of Trypanosoma cruzi cruzain without detergent; P25779; purified cruzain, Z-FR-AMC fluorescence, no detergent; Potency, µM, without a hit: max response, negative = inhibition, usual class: inhibitors; 200,000 tested, 2.3% active; AID 1476; active means well fitted curve in the direction sought with a large enough effect; inconclusive means small, poorly fitted or top-dose-only effect, or another doubt; inactive means no such curve, though single readings can be large; an effect the other way counts as inactive or inconclusive;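 further: plate controls were enzyme without inhibitor for no effect and buffer without enzyme for full effect; nearly all actives have a fitted effect of over 40% in size; top concentration of the series not given in the record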
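Detergent-free condition (0.00005% Triton X-100) in acetate buffer pH 5.5 with DTT. 1.5 nM enzyme and compound were pre-mixed 15 min, then 2 uM Z-FR-AMC substrate added; reaction progress from fluorescence change between first and third reads (60 s).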
RE007 growth inh – less growth of the S. pombe RE007 Vpr strain; S. pombe RE007 Vpr strain, BacTiter-Glo ATP luminescence, 24 h; control for the full effect not named in the record; Potency, µM (doses to about 92.2 µM), without a hit: at the highest dose activity change, negative = less growth; 360,000 tested, 0.21% active; AID 651644; active = well fitted falling curve with a large enough effect; inconclusive = small, poorly fitted or top-dose-only effect; inactive = no such curve, though single readings can be large or run the other way;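 further: on the % scale 0 is the no-effect control and ±100 the full control effect; nearly all actives have a fitted effect of over 50% in size; the assay follows cell death caused by Vpr and the record does not say whether a fall means rescue or toxicity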
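Fission yeast RE007 carrying one integrated HIV-1 vpr copy, seeded at OD 0.01 in PMG+AL medium with 23 nL pinned compound. Grown 24 h at 30 degrees; viability read by BacTiter-Glo luminescence after 5 min.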
The depositor's hits bear a star; ? = inconclusive; / = no result given; [ ] = remark or other dose. Unless noted, the call rests on the fitted dose curve; in most records, active means well fitted rising curve with a large enough effect; inconclusive means small, poorly fitted or top-dose-only effect; inactive means no such curve, though single readings can be large or run the other way. Potency means the concentration at half of the fitted maximal effect.

SMILES | Lassa entry inh | MARV entry inh | NS1 inh | StopGo reporter | Cruzain inh Det | SARS PLpro yeast | Cruzain inh noDet | RE007 growth inh
CCCN1CCc2c(sc(NC(=O)CCS(=O)(=O)c3ccccc3)c2C(N)=O)C1 | 2% | 2% | 2% | -12% | / | 1% | / | -16%
COC(=O)c1c(NC(=O)/C=C/C(=O)O)sc(C)c1-c1ccc(C(C)C)cc1 | 5.6µM* | -16%[46.1 µM] | -6% | 14µM* | / | -1% | / | 7%
O=C(COC(=O)C1CCN(c2ccc(C(F)(F)F)cn2)CC1)NC1CCCCC1 | 0% | 14%[46.1 µM] | / | 1% | / | -5% | / | -11%
Cc1ccc(-n2nc3c(c2NC(=O)c2ccc4c(c2)OCO4)CSC3)cc1 | -7% | -14% | -7% | 4% | -0.4% | 4% | 16µM* | 24%
COC(=O)c1nc(-c2ccc3c(n2)C(=O)C(N)=C(OC)C3=O)c(N)c(-c2ccc(OC)c(OC)c2O)c1C | ? | ? | ? | ? | / | 1% | / | 7%
COc1ccc(N2CCN(C(=O)Nc3ccc(Cl)cc3)CC2)cc1 | 14%[46.1 µM] | 18%[46.1 µM] | / | -18% | -3.4% | / | 3% | /
COc1ccc(-c2cc3c(=O)n(CC(=O)N4CCCC4)ncn3n2)cc1 | / | / | 0% | -5% | / | -6% | / | 5%
C/C(=N\NC(=O)COc1ccccc1[N+](=O)[O-])c1cccc(NC(=O)c2ccncc2)c1 | ? | ? | 5% | ? | / | 7% | / | 5%
C=C(C)C1CC=C(C)/C(=N/NC(=O)c2ccc(NC(=O)CC)cc2)C1 (stereo not given) | ? | 18% | -10% | 23% | 1.3% | 3% | 1% | 14%
Cn1c(=O)c2c(nc(CN3CCN(c4ccccc4)CC3)n2Cc2ccccc2Cl)n(C)c1=O | -24% | ? | ? | -15% | 1.6% | -13% | ? | 1%
CC(=O)C1[C@H](N(C)C)CC2C3CC=C4CC(O)CC[C@]4(C)C3CC[C@@]21C (stereo not given in full) | 24%[46.1 µM] | 14%[46.1 µM] | 8% | -6% | / | 0% | / | 8%
CCC(Sc1nnc(-c2ccc(OC)c(OC)c2)c(-c2ccc(OC)c(OC)c2)n1)C(=O)NC1CCCC1 (stereo not given) | 10%[46.1 µM] | / | / | -3% | 1.0% | / | -13% | /
O=C(NN1C(=O)/C(=C/C=C/c2ccco2)SC1=S)c1ccncc1 | -27%[46.1 µM] | ? | 14% | 0% | / | 1% | / | 7%
COc1ccccc1OCc1nnc(SCC(=O)Nc2ccc(N3CCOCC3)cc2)n1C | / | 1%[46.1 µM] | -10% | 20% | / | 1% | / | 17%
COC(=O)CSc1nnc(NC(=O)/C=C\c2ccc3c(c2)OCO3)s1 | 18% | 4% | 4% | -16% | 1.9% | 9% | -12% | -9%
O=C(NCCCN1CCN(c2ccccc2F)CC1)c1cc2c(s1)-c1ccccc1OC2 | / | -25%[46.1 µM] | / | 1% | -22% | / | 23% | /
C=CCNC(=O)c1ccc(CNS(=O)(=O)c2ccc(NC(C)=O)cc2)cc1 | ? | -2% | 4% | -28% | 6.9% | -2% | 5% | -7%
COc1cc(C(=O)/C=C/c2cccnc2)ccc1O | ? | ? | -1% | ? | / | -2% | / | -8%
O=C(NC12CC3CC(CC(C3)C1)C2)N1CCC(n2nnc3ccccc32)CC1 | -7% | -13% | -19% | -17% | -0.4% | 7% | 0% | 3%
CC(C)(C)c1ccc(C2SCC(=O)N2c2cccc(C(=O)O)c2)cc1 (stereo not given) | / | / | 3% | -2% | / | 1% | / | 4%
CN(C)S(=O)(=O)c1cccc(C(=O)Nc2ccccc2[N+](=O)[O-])c1 | 3% | ? | 4% | -3% | -5.0% | 4% | -10% | 4%
CCOc1ccc(C(=O)Nc2cnn(Cc3ccc(Cl)c(Cl)c3)c2)cc1 | ? | ? | -3% | ? | -7.4% | -3% | -18% | 15%
Cc1ccc(C2C=C(c3ccccc3)Nc3nc(N4C(=O)CCC4=O)nn32)cc1 (stereo not given) | -5% | 14%[46.1 µM] | 1% | 1% | / | 1% | / | 3%
Oc1ccc(-c2[nH]ncc2-c2ccc(Br)cc2)c(O)c1 | / | / | 4% | -13% | / | -3% | / | 1%
O=C(Nc1ccc(Br)cc1)c1ccc(F)c(S(=O)(=O)N2CCc3ccccc32)c1 | ? | / | / | ? | 0.4% | / | ? | /
The list goes on:
SMILES | Lassa entry inh | MARV entry inh | NS1 inh | StopGo reporter | Cruzain inh Det | SARS PLpro yeast | Cruzain inh noDet | RE007 growth inh
CCCCC(=O)Nc1ccc(C(=O)N(CC)c2ccccc2C)cc1 | ? | -13%[14.2 µM] | -4% | -10% | / | 0% | / | 12%
CCc1ccc(C(=O)c2cc3ccc(O)cc3oc2=O)cc1 | 13% | 0% | -34% | 80%[activator] | / | -4% | / | -1%
CCN(c1ccccc1)c1nnc(NC(=O)Nc2cccc(C(F)(F)F)c2)s1 | -2%[46.1 µM] | 8%[46.1 µM] | / | -17% | -3.1% | / | -3% | /
c1ccc(CNc2ncnc3sccc23)cc1 | / | / | 0% | ? | / | 1% | / | 2%
Nc1ncnc2c1nc(SCCO)n2Cc1ccccc1 | / | -1%[46.1 µM] | / | -25% | / | 3% | / | 3%
CCOC(=O)c1[nH]c(C)c(C(=O)NC2CCN(C(=O)OCC)CC2)c1C | 7% | -2% | -1% | -22% | -0.7% | 2% | -1% | 2%
COc1ccc(NC(=S)N/N=C2\CC(C)(C)Oc3ccc(OC)cc32)cc1 | ? | ? | -13% | -14% | -9.4% | -7% | -15% | 16%
CCN(CC)C(=O)CSc1nnc(-c2ccc(S(=O)(=O)N3CCOCC3)cc2)n1C | -4%[46.1 µM] | -23%[46.1 µM] | 1% | -5% | / | 0% | / | 2%
CCCCN1C(C(=O)Nc2cc(C)on2)=C(O)c2ccccc2S1(=O)=O | ? | 22% | 9% | -2% | / | -2% | / | -6%
CC(=O)N1CCc2cc(S(=O)(=O)NC(CC(C)C)C(=O)Nc3cc(C)cc(C)c3)ccc21 (stereo not given) | -13%[46.1 µM] | ? | / | 15% | -2.3% | / | 0% | /
O=C(CN1CCC(NC(=O)Nc2ccccc2-c2ccccc2)CC1)NCc1ccco1 | 2% | -2% | -24% | -19% | 5.7% | 8% | 4% | -4%
Cc1ccc(S(=O)(=O)C2(C(=O)N(C)C3CCCCC3)CC2)cc1 | 15% | -13% | 0% | 8% | -0.9% | 2% | 10% | 9%
O=C(Nc1ccccc1N1CCN(C(=O)c2ccccc2)CC1)c1ccc2c(c1)OCO2 | -17% | -39% | -80% | ? | -3.9% | -6% | -9% | -19%
Cc1ccc(S(=O)(=O)/N=C(/Nc2cccc(O)c2)c2ccccc2)cc1 | -18%[46.1 µM] | ? | -2% | 18% | / | -1% | / | -5%
COc1cc2c(cc1OC)C(C(=O)N(C)C1CCCCC1)C1CCCCN1C2=O (stereo not given) | 0% | 5% | -5% | -13% | -1.9% | 4% | 14% | -1%
COc1cc(/C=N/Nc2ccccc2)ccc1OC(=O)c1cccs1 | -14% | -1% | -24% | 34%[activator] | -2.6% | -35% | 13µM* | 122%
CC(C)(C)NC(=O)CN(CCN1CCOCC1)C(=O)CNS(=O)(=O)c1ccccc1 | -1% | -15%[46.1 µM] | 17% | 14% | / | 0% | / | 6%
COc1cc(-c2nnc(-c3ccccc3)o2)cc(OC)c1OC | ? | ? | -5% | -16% | -2.3% | -22% | 27% | -26%
COc1cc(CN2CCNC(=O)C2CC(=O)NCCc2ncccc2C)cc(OC)c1 (stereo not given) | 18%[46.1 µM] | -6%[46.1 µM] | -1% | 14% | / | 0% | / | -6%
O=C(Nc1ccccc1N1CCCCC1)c1ccc(-c2cccc(Cl)c2)o1 | 7% | ? | 11% | -15% | -2.2% | 4% | -3% | 1%
N#Cc1cc2ccccc2nc1N | ? | 38%[46.1 µM] | -3% | 16% | / | 3% | / | 14%
CC1(C)C(=O)OC(/C=C/c2cccc([N+](=O)[O-])c2)C(C)(C)C1=O (stereo not given) | / | / | 0% | -11% | / | 0% | / | -12%
Cc1ccc2nc(SCC(=O)N3CCN(c4ccccc4)CC3)[nH]c2c1 | ? | 14%[46.1 µM] | 1% | 0% | / | -4% | / | 1%
COc1ccc(CCNC(=O)c2ccc([N+](=O)[O-])cc2Cl)cc1OC | 6% | -30% | / | -20% | / | / | / | -4%
COc1ccc(C(=O)NC(=S)N(CCC(C)C)c2c(N)n(Cc3ccccc3)c(=O)[nH]c2=O)cc1 | ? | -22%[46.1 µM] | ? | -14% | -7.9% | -9% | 5% | 2%
CCc1ccc2[nH]c(=O)c(CN(CCN3CCCC3)C(=O)NC3CCCCC3)cc2c1 | -28% | ? | ? | -13% | -9.3% | 1% | ? | 3%
Cc1ccc(-c2csc3ncn(CC(=O)O)c(=O)c23)cc1C | / | / | 15% | 15% | / | ? | / | -1%
Cc1onc(-c2ccccc2Cl)c1C(=O)NNC(=O)c1ccccc1F | 1% | 5%[46.1 µM] | -12% | 17% | / | 1% | / | 17%
Cc1cc(C)c(S(=O)(=O)NCc2cccnc2)c(C)c1 | / | / | -1% | 9% | / | -2% | / | 8%

Complete entries from above. Order of values: Lassa entry inh | MARV entry inh | NS1 inh | StopGo reporter | Cruzain inh Det | SARS PLpro yeast | Cruzain inh noDet | RE007 growth inh
CC(C)(C)NC(=O)CN(CCN1CCOCC1)C(=O)CNS(=O)(=O)c1ccccc1 as listed: -1% | -15%[46.1 µM] | 17% | 14% | / | 0% | / | 6%
COc1cc(CN2CCNC(=O)C2CC(=O)NCCc2ncccc2C)cc(OC)c1 (stereo not given) as listed: 18%[46.1 µM] | -6%[46.1 µM] | -1% | 14% | / | 0% | / | -6%
O=C(Nc1ccccc1N1CCCCC1)c1ccc(-c2cccc(Cl)c2)o1 as listed: 7% | ? | 11% | -15% | -2.2% | 4% | -3% | 1%
CCCCC(=O)Nc1ccc(C(=O)N(CC)c2ccccc2C)cc1 as listed: ? | -13%[14.2 µM] | -4% | -10% | / | 0% | / | 12%
